# Bioassay records deposited in PubChem by ICCB-Longwood Screening Facility, Harvard Medical School.
# CapD inh: Bacillus anthracis CapD inhibitors, primary screen, biochemical, fluorescence intensity. purified CapD enzyme, fluorescence intensity read-out; hits give low values; some hits fall short of the stated cut. CapD gamma-glutamyltranspeptidase (Bacillus anthracis Ames Ancestor). 0.23% of 140,000 active. z-score (test concentration not listed);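 active = z-score under -4 in either of two replicates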;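 also: stock transfer was 100 nL into about 40 µL; score is relative to mean and spread of the plate; one replicate is shown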
# AID504770: growth inhibition of E. coli YBA685, primary screen, V. cholerae RctB inhibitors | 0.27% of 130,000 active | E. coli YBA685 rctB-dependent plasmid, OD600 growth, 3 h; hits give low values | AID 504770, 2011 | z-score (test concentration not listed);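 active = z-score under -2 on both plates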;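 also: wells of about 30 µL received 100 nL stock; score is relative to mean and SD of the test wells; the first replicate is given; strong numbers were not always called active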
# * = called active by the depositor; . = no result given.
Compound	AID504770	CapD inh
O=C1CCCN1c1ccc(OCc2ccc(F)cc2)cc1	-0.85	.
CCS(=O)(=O)c1c(S(=O)(=O)CC)c2cc(-c3ccncc3)ccn2c1C(=O)c1ccc(C)cc1	.	6.7
N#CNC(=NS(=O)(=O)c1ccccc1)c1ccccc1	-0.95	-0.47
CCN1CCCC1CNC(=O)CSc1c2c(nc3ccccc13)CCCC2 (stereo not drawn)	-0.6	-0.29
COC(=O)c1c(NC(=S)Nc2ccn(C)n2)sc2c1CCCC2	2	-0.12
CNC(=O)c1cn(-c2ccccc2)c(=O)c2ccccc12	0.65	4.8
COC(=O)C(C)Oc1ccc(Oc2nc(Cl)ccc2Cl)cc1 (stereo not drawn)	-0.4	.
CCC(=O)NNc1nc2c(OC)ccc(OC)c2s1	-0.85	.
COC(CNC(=O)c1ccc2c(c1)N(Cc1ccc(Cl)cc1)CCS2)OC	-0.5	103
O=C(NCC(c1ccc(F)cc1)N1CCOCC1)c1ccc(C(=O)c2ccccc2)cc1 (stereo not drawn)	-0.4	-0.42
COc1ccc(C(=O)OCCN2CCN(C3=NS(=O)(=O)c4ccccc43)CC2)cc1	.	-1.3
CC(=O)Nc1ccc(S(=O)(=O)N2CCN(C(=O)c3ccc(F)cc3Cl)CC2)cc1	.	-0.2
CCC(C)(C)C(=O)Nc1nnc(C(F)(F)F)s1	1.1	0.32
CCc1nn(CC(=O)OC)c(=O)c2cc3sc(C)cc3n12	-0.3	6.7
COc1ccccc1N1CCN(CCCCNC(=O)c2ccc3ccccc3c2)CC1	.	-1.8
COc1cc(C=C2C(=O)N(C)C(=O)N(C)C2=O)ccc1OCCOc1ccc([N+](=O)[O-])cc1	.	-1.1
COc1ccc(C(C(=O)Nc2ccc(C(C)C)cc2)N(Cc2ccco2)C(=O)c2cnccn2)cc1 (stereo not drawn)	.	2.7
CC(=O)OC[C@H]1OC=C[C@@H](OC(C)=O)[C@@H]1OC(C)=O	-0.35	-0.15
COc1ccc(/C=N/C2=NNC(c3ccc(OC)cc3)=CS2)cc1	-1	0.22
CCc1ccc(OC(C)C(=O)Nc2cc(-c3ccc(C)cc3)no2)cc1 (stereo not drawn)	0.6	0.54
Cc1ccc(-c2nn3c(=O)c4ccccc4nc3c3ccccc23)cc1	-0.5	-1.1
Cc1cc2nc(N(C)C)c3ccccc3n2n1	0.25	.
O=C(Cc1ccc(S(=O)(=O)N2CCOCC2)s1)Nc1ccccc1Br	0.5	.
CCCNC(=O)C1=NS(=O)(=O)c2ccccc2N1	0.15	-0.49
Cc1cccc2c1NC(C)(C)c1ssc(=Nc3cccc(Cl)c3)c1-2	.	-0.43
COC(CN(C)C(=O)c1c[nH]c2ccc(S(=O)(=O)Nc3ccccc3F)cc2c1=O)OC	-0.05	3.7
Cc1cc(C)nc(N2CCC(NC(=O)Cc3cccs3)CC2)n1	-1.1	1.1
Oc1ccccc1C1=NNC(O)(C(F)(F)F)C1 (stereo not drawn)	-0.8	-0.11
NCC12CC3CC(C1)CC(C(=O)O)(C3)C2	-1.6	0.065
O=C(O)C1CCC(CNCc2ccncc2)CC1 (stereo not drawn)	-0.3	0.8

# Already shown: an excerpt of the list.
Compound	AID504770	CapD inh
COc1cc(C=C2C(=O)N(C)C(=O)N(C)C2=O)ccc1OCCOc1ccc([N+](=O)[O-])cc1	.	-1.1
COc1ccc(C(C(=O)Nc2ccc(C(C)C)cc2)N(Cc2ccco2)C(=O)c2cnccn2)cc1 (stereo not drawn)	.	2.7
CC(=O)OC[C@H]1OC=C[C@@H](OC(C)=O)[C@@H]1OC(C)=O	-0.35	-0.15

# Other results
Compound	AID504770	CapD inh
O=C(Oc1ccccc1O)c1ccccc1	-0.25	-0.3
CC12C=CC(C)(O1)C1C(=O)N(c3ccc(Cl)c(C(F)(F)F)c3)C(=O)C12 (stereo not drawn)	.	-0.18
CC1CCCC(NC(=O)c2n[nH]c(=O)c3ccccc23)C1C (stereo not drawn)	0.15	0.62
CCN1CCCC1CNC(=O)Nc1ccc(Cl)c(Cl)c1 (stereo not drawn)	0.05	.
CCOc1ccc(Cc2nc3ccccc3[nH]2)cc1	-1.1	-0.87
CC1CCCC(C)N1NC(=O)c1ccc2c(c1)SC1=NS(=O)(=O)CCN12 (stereo not drawn)	-0.35	.
COc1cccc(NC(=O)CSC2=Nc3ccccc3C3=NC(C(C)C)C(=O)N23)c1 (stereo not drawn)	-0.85	-1.2
CC1CC1COC(=O)N1CCN(C(c2ccccc2)c2ccc(Cl)cc2)CC1 (stereo not drawn)	.	0.085
Cn1c(SCc2ccc(Cl)c(Cl)c2)n[nH]c1=S	.	-0.21
CC1CCCCN1Cc1c(O)ccc2cc(-c3nc4ccccc4n3C)c(=O)oc12 (stereo not drawn)	0.95	12
COc1ccc(-n2c(SCC(=O)Nc3ccc(C)cc3)nc3n[nH]c(C)c3c2=N)cc1	0.2	0.04
CN(C)S(=O)(=O)Oc1cccc(C(=O)Nc2ccc(Cl)cc2)c1	.	0.45
CN(C)c1ccc(C2NCC(CCl)O2)cc1 (stereo not drawn)	-0.9	-3.2
Brc1ccc(OCc2cn3ccccc3n2)cc1	-1.1	5.5
CCc1nnc(NS(=O)(=O)c2ccc(NC(=O)CCCN3C(=O)c4cccc5cccc(c45)C3=O)cc2)s1	.	0.92

# Ordered by count of non-hydrogen atoms (low to high): 3 of the compounds above.
Compound	AID504770	CapD inh
CC1CCCC(C)N1NC(=O)c1ccc2c(c1)SC1=NS(=O)(=O)CCN12 (stereo not drawn)	-0.35	.
CC1CCCCN1Cc1c(O)ccc2cc(-c3nc4ccccc4n3C)c(=O)oc12 (stereo not drawn)	0.95	12
CCc1nnc(NS(=O)(=O)c2ccc(NC(=O)CCCN3C(=O)c4cccc5cccc(c45)C3=O)cc2)s1	.	0.92

# Continued.
Compound	AID504770	CapD inh
CN1CCN(CCNC(=O)c2cnn(-c3ccccc3)c2-n2cccc2)CC1	0.05	0.35
COc1cc2sc(=NC(=O)CCS(=O)(=O)c3ccccc3)n(C)c2cc1OC	0.2	.
Cc1ccccc1OCC(=O)Nc1nn2c(C)nnc2s1	1.4	-1.8
Cc1cc(C)cc(-n2c(=O)c3oc4ccccc4c3n(Cc3ccc(F)cc3)c2=O)c1	-1.1	1.7
CCOc1cccc2c1OC(c1cc(OC)c(OC)c(OC)c1)N1N=C(c3cccc(OC)c3)CC21 (stereo not drawn)	.	-0.73
Cc1cccc(OCC(O)CN2C(C)(C)CCCC2(C)C)c1 (stereo not drawn)	-0.85	-0.4
Cc1ccc(S(=O)(=O)Nc2ccc(N=NN3CCCCC3)cc2)cc1	-6.8*	.
Cc1ccc2c(c1)c1nc3ccccc3nc1n2CC#N	-0.9	0.025
CCOC(=O)C1=NN(c2ccccc2)C(=O)C1	-0.3	.
c1ccc2sc(SN3CCOCC3)nc2c1	-0.5	.
CC(C)N1C(=O)C(O)(c2nnc(-c3ccccc3)o2)c2ccccc21 (stereo not drawn)	-0.3	.
CCN(CCN)c1ccc2c(=O)[nH][nH]c(=O)c2c1	1.6	0.39
CC(C)(C)c1cc2nc(N)nc(N)n2n1	-0.4	-0.64
CN(C)CCN1C(=O)c2ccccc2Sc2ccccc2S1(=O)=O	-0.2	-0.7
CCN1C(=O)C(CC(=O)Nc2ccc(C(=O)OC)cc2)N(CCN2CCOCC2)C1=S (stereo not drawn)	-0.8	-0.15
CCOC(=O)c1cc(=O)c2ccc(OCC(=O)Nc3ccc4c(c3)OCCO4)cc2o1	0.05	-0.2
COC(=O)c1sc2nc(C)cc(C)c2c1N	-0.35	.
CCOC(=O)Cc1csc(=S)n1-c1ccc(OC)cc1	0.6	-0.27
CCOC(=O)c1c(NC(=O)c2ccc(Cc3ccc(C)cc3)o2)sc2c1CCC(C#N)(c1ccccc1)C2 (stereo not drawn)	.	7.7
Cc1c(CC(=O)O)sc2ccc(Cl)cc12	0.4	-0.07
CN(C)S(=O)(=O)c1ccc2oc3nnc(SCC#N)n3c2c1	0.4	.
CC(=O)N1CCN=C1SCc1ccccc1	-0.95	-2.4
CCCc1ccc(SC(=O)N(C)C)cc1O	.	0.05
N#CCOc1nc(-c2ccccc2)cc(-c2ccco2)c1C#N	-0.6	26
C=CCOn1c(=O)c(C)[n+]([O-])c2ccccc21	.	3.6
O=C(/C=C1\Sc2ccccc2NC1=O)NC1CC1	-0.05	0.9
C1CCN=C(Nc2nc3c(s2)CCCC3)CC1	0.6	.
CC(C)(C)OC(=O)NCCCCCNC(=O)CCCCCNC(=O)OCc1ccccc1	.	0.24
CC(C)c1ccc(OCc2ccc(C(=O)NCc3ccco3)cc2)cc1	1.4	8.6
CCN(CC)S(=O)(=O)c1ccc(N2CCN(C(=O)c3ccccc3)CC2)nc1	-0.1	.
Cc1cc(C(=O)c2ccccc2C(=O)O)c(C)c(C)c1C	.	0.06
CCOC(=O)CCc1c(C)nn(-c2ccc(Cl)nn2)c1C	0.45	0.015
Cc1ccc2nc(-c3ccsc3)c(NCC(=O)NN)n2c1	-0.9	23
N#C/C(=C\Nc1ccccn1)C(=O)c1ccc(OC(F)(F)F)cc1	.	-0.12
COc1ccc(C(=O)NCCc2sc(-c3cccc(C)c3)nc2C)cc1	1.3	-0.24
Cc1c(C#N)c2ncnc(-c3ccccc3)c2n1Cc1ccccc1	-0.85	0.73
COc1ccc(OCC(=O)Nc2cccnc2)cc1	-0.2	0.51
CCc1nnc(NC(=O)c2ncn[nH]2)s1	0.65	-0.23
CS(=O)(=O)N1CCC(NC(=O)Cc2ccccc2)CC1	-0.05	.
CCOC(=O)c1c(NC(=O)COC(=O)c2cn(CC)c3nc(C)ccc3c2=O)sc2c1CCCC2	1.1	0.99
O=C(NN1C(=O)c2ccc([N+](=O)[O-])c3c([N+](=O)[O-])ccc(c23)C1=O)c1ccc([N+](=O)[O-])cc1	.	0.12
CCCc1nc2c(o1)OC(N)=C(C#N)C2c1cccc(O)c1 (stereo not drawn)	-0.9	-3.9
COc1ccc(CCNC(=O)COc2ccc(-c3noc(C)n3)cc2)cc1OC	-0.35	.
CCc1ccc(NC(=O)c2ccc3c(c2)OCO3)cc1	0.95	0.69
O=C(O)C1CCN(C(=O)c2ccc3c(c2)OCO3)CC1	-0.4	0.39
S=c1[nH]nc(-c2ccccc2)n1N=Cc1cccs1	1.8	-1.5
COCCN1C(=O)c2ccccc2C(C(=O)N2CCN(c3ccccc3OC)CC2)C1c1ccc(F)cc1 (stereo not drawn)	1.1	-0.47
NC(=O)c1cc(NC(=O)/C=C/c2cccc(F)c2)cc(C(N)=O)c1	-0.15	.
COc1ccc(C2CCN(C(=O)N(C(C)C)C(C)C)CC2)cc1	-0.65	.
c1ccc(CCc2nc3ccccc3[nH]2)cc1	-0.95	78
CC(C)(C)C(=O)NNc1ncnc2sccc12	-0.5	-0.37
O=C(/C=C/c1ccccc1)C1=C(O)C(=O)N(CCO)C1c1ccc2c(c1)OCO2 (stereo not drawn)	0.85	.
Nc1c(C(=O)Nc2ccccn2)sc2nc(-c3cccs3)cc(C(F)(F)F)c12	.	21
CCC(C)(C)NC(=O)c1cc(Cl)ccc1OC	-0.5	-0.015
CCOC(=O)c1c(C)oc2ccc(N(C(=O)c3ccccc3)S(=O)(=O)c3ccc(CC)cc3)cc12	.	-0.2
CC1=C(C(=O)Nc2ccccc2)C(C2CCCCC2)C(C#N)=C(N)O1 (stereo not drawn)	-0.1	-0.44
COc1ccc(N2CCN(C(=O)C(CCSC)N=C3NS(=O)(=O)c4ccccc43)CC2)cc1 (stereo not drawn)	-0.4	.
CCOC(=O)c1c(-c2ccccc2)nc(=O)[nH]c1-c1ccc(-c2ccc(F)cc2)o1	-0.3	0.035
Cc1ccccc1NC(=O)CCCn1nc(C)c2c(C)n(-c3ccccc3)nc2c1=O	-0.4	-0.32
OCCN1CCN(c2cc(C(F)(F)F)nc3ccccc23)CC1	-1.1	-0.66

# More entries.
Compound	AID504770	CapD inh
COc1cccc(OCc2ccc(Cl)cc2)c1C#N	.	0.08
O=C(NCCSC1CCCCC1)c1ccco1	-0.35	-0.49
COc1ccc(C(=O)OCC(=O)Nc2ccc3[nH]c(=O)[nH]c3c2)cc1	0.5	.
O=C(Nc1ccc(F)cc1)C1CC(=O)N(Cc2ccc3c(c2)OCO3)C(=Nc2ccccc2)S1 (stereo not drawn)	.	-0.29
Cc1ccccc1OCC(O)CNC(C)C1CC2CCC1C2 (stereo not drawn)	-0.2	.
Nc1c(S(=O)(=O)c2ccccc2)c2nc3ccccc3nc2n1-c1cccc(S(N)(=O)=O)c1	0.9	.
CCc1ccc(NC(=O)C(OC)c2ccccc2)cc1 (stereo not drawn)	-0.45	0.41
C=CCOc1cccc(C(=O)NCCC)c1	0.4	-0.34
CSc1nc2nccc(N)n2n1	.	1
COc1ccc(/C=C/C(=O)NC(C)(C)C)cc1	-0.7	-1.9
CC(C)c1ccccc1NC(=O)c1cccs1	-0.9	.
O=[n+]1cc(-c2cccc(C(F)(F)F)c2)n([O-])c2c1CCC2	-0.15	0.1
CC(=O)N1CCN(S(=O)(=O)c2cccc(C(=O)Nc3ccnn3C(C)C3CC3)c2)CC1 (stereo not drawn)	-0.25	.
O=C(O)CCC(=O)Nc1ccc2ccccc2c1	-0.45	0.48

# 2 of the compounds above, field by field:
canonical_smiles: CC(=O)N1CCN(S(=O)(=O)c2cccc(C(=O)Nc3ccnn3C(C)C3CC3)c2)CC1 (stereo not drawn)
  AID504770: -0.25; CapD inh: .
canonical_smiles: O=C(O)CCC(=O)Nc1ccc2ccccc2c1
  AID504770: -0.45; CapD inh: 0.48
